High-throughput results as filed in PubChem.
NPYLR7 agonist: activates Aedes aegypti NPYLR7 receptor; 0.15% of 270,000 active; activation, % at 10 µM; AID 1259423; HEK293T NPYLR7/Galpha15, GCaMP6s calcium fluorescence; in the data active means activation above about 40%;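 further: 0% = vehicle and 100% = reference agonist at the receptor; some compounds past the cut are filed as inactive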
NPYLR7 agonist max-min: recorded beside NPYLR7 agonist, whose call it bears; activation, %; measured here: Max-Min RFU normalised activation; some inactives read as strong as hits;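 span of the calcium signal over five minutes; 0% = vehicle and 100% = native peptide agonist; compound fluorescence can raise it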
Starred values were filed as active, the others as inactive; & = joins results of further samples.

Start of the data: the first two compounds, to show the layout:
| SMILES | NPYLR7 agonist | NPYLR7 agonist max-min |
| --- | --- | --- |
| C=CCOC(=O)C1C(C)=NC2=C(C(=O)CCC2)C1c1cccc(Br)c1 (configuration not stated) | -1 | -8 |
| N#CC(C#N)C(=N)C(Cl)Cl | 2 | 1 |

This part in full (from the top)
| SMILES | NPYLR7 agonist | NPYLR7 agonist max-min |
| --- | --- | --- |
| C=CCOC(=O)C1C(C)=NC2=C(C(=O)CCC2)C1c1cccc(Br)c1 (configuration not stated) | -1 | -8 |
| N#CC(C#N)C(=N)C(Cl)Cl | 2 | 1 |
| CCCC12CN(C(=O)CCCCCNC(=O)OC(C)(C)C)CC1C(=O)NC(=O)N2 (configuration not stated) | -1 | -2 |
| COc1ccc(CCN(Cc2ccc(C)o2)C(=O)CN(C(C)=O)C2CC2)cc1OC | 19 | 29 |
| Cc1ccc2nc(C)n(C3CCN(C(=O)c4ccc(C)[nH]c4=O)CC3)c2c1 | 9 | 14 |
| CC(C)c1nccn1CCCNC(=O)c1ccc2c(c1)CCO2 | 4 | 2 |
| O=C1c2nc(-c3cccnc3)ccc2CN1C1(C(=O)NCC2CCCCC2)CC1 | -8 | -5 |
| CCN(CC)S(=O)(=O)c1ccc2c(c1)nc(SCc1ccc(C(F)(F)F)nc1)n2CC1CCCO1 (configuration not stated) | 24 | 13 |
| CCN(CC)C1CCN(C(=O)Cn2nnnc2CN2CCOCC2)C1 (configuration not stated) | -3 | -3 |
| CCOC(=O)C1=C(C)N=c2s/c(=C3\C(=O)N(C(C)=O)c4ccccc43)c(=O)n2C1c1ccc(OC(C)=O)cc1 (configuration not stated) | 13 | 19 |
| CC(=O)NCC1=CCCN(CCn2cc(Cl)cn2)C1 | 1 | -1 |
| O=C(c1ccoc1)N1CCC(NC(=O)C2(c3ccc4c(c3)OCCO4)CCCC2)CC1 | 0 | -1 |
| COCCOCC(=O)N1CCN(Cc2cc(=O)c(OCc3ccc(-c4ccccc4C#N)cc3)co2)CC1 | 3 | 1 |
| O=S(=O)(Nc1ccc2c(c1)OCCCO2)c1ccc(F)cc1 | -8 | -5 |
| COc1cc2c(cc1OC)CN(C(=S)NCCN(C)C)CC2 | 3 | 11 |
| Cc1ccc(OCCN2CCC2(C)C(=O)Nc2cnc3ccccc3c2)cc1 (configuration not stated) | -1 | -5 |
| CCC(=O)c1cnc2c(=O)n(C)c(=O)n(C)c2n1 | -7 | -10 |
| Clc1ccc(Cn2ncc3c(N4CCN(c5ccccn5)CC4)ncnc32)c(Cl)c1 | 9 | 8 |
| CCc1cn[nH]c1C1CCN(C(=O)c2cc(CC(C)C)nn2CC)CC1 | -1 | -2 |
| CN(C(=O)Cn1cc(OCc2ccccc2F)c(=O)cc1CO)c1ccccc1 | 0 | -1 |
| CCCN(CC#N)C(=O)Cc1ccc(Cl)c(Cl)c1 | 6 | 4 |
| Cc1ccc(S(=O)(=O)NC(=O)C2(C)CCN2C(=O)c2ccccc2CCc2ccccc2)cc1 (configuration not stated) | 2 | -2 |
| CN(C)CC1(O)CCN(C(=O)c2ccc(Cn3ccnc3)o2)C1 (configuration not stated) | 4 | 1 |
| CN1CCOC(CCNC(=O)c2ccc(-c3nnn(C)n3)cc2)C1 (configuration not stated) | 2 | -2 |
| CC(C)SC(NC(=O)OCc1ccccc1)C(=O)NCCCc1ccccc1 (configuration not stated) | -5 | -9 |
| C=CC(C)(O)CN(CCN1CCOCC1)Cc1ccc(OC)cc1 (configuration not stated) | 2 | 3 |
| Cc1cc(C)n(-c2ccc(C(=O)NC(C)CC(C)C)cc2)n1 (configuration not stated) | -5 | -11 |
| Cc1ccc(S(=O)(=O)N(Cc2nccn2Cc2cccc(Cl)c2)C2CCCCC2)cc1 | -8 | -5 |
| CCCS(=O)(=O)NC1CCN(Cc2csc(C3CCCCC3)n2)CC1 | 1 | 14 |
| CCCCN1C(=O)C(NC(=O)c2ccccc2OC)(C(F)(F)F)C(C(=O)OC)=C1C (configuration not stated) | -11 | -15 |

(next part)
| SMILES | NPYLR7 agonist | NPYLR7 agonist max-min |
| --- | --- | --- |
| COC(=O)c1ccc(C2C(C(=O)OC(C)C)=C(C)NC3=C2C(=O)CCC3)cc1 (configuration not stated) | -2 | -7 |
| COC(=O)CC(NS(=O)(=O)/C=C/c1ccccc1)c1cccs1 (configuration not stated) | 11 | 4 |
| COc1ccc(CCn2c(SCC(N)=O)nc3nccnc3c2=O)cc1OC | 3 | 2 |
| COc1ccc(NC(=O)c2cccn(OCc3ccc(F)cc3)c2=O)cc1 | 3 | 1 |
| Cc1nc(SCc2cc(=O)[nH]c(C3CC3)n2)n(Cc2ccc(Cl)cc2)c1C | 7 | 1 |
| Cc1nc(=O)c(-c2ccccc2)c(C)n1-c1ccccc1 | -12 | -17 |
| O=C(NCC1(N2CCOCC2)CCCCC1)c1cn(Cc2cccc3ccccc23)nn1 | 8 | 0 |
| Cc1cccc(C)c1NC(=O)CSc1ncnc2sc(C)c(C)c12 | -1 | -8 |
| C=CCN(CC(=O)N1CCc2sccc2C1c1ccc(Cl)cc1)C(=O)CC(C)CC(C)(C)C (configuration not stated) | 19 | 19 |
| CCCn1ncc(C(=O)NCc2nnc(-c3ccccc3)o2)c1C | -9 | -16 |
| COc1ccccc1Nc1nc(C)cc(C)c1C#N | -2 | -4 |
| Cc1nc(C)n(CC2CCCN2C2CCOC2=O)n1 (configuration not stated) | 10 | 8 |
| COc1cccc(-n2nnc3c(=O)n(CC(=O)NCc4ccc(F)cc4)cnc32)c1 | 7 | 7 |
| CCNC(=O)N(Cc1ccc(OS(=O)(=O)c2ccc(F)cc2)cc1)C1CC1 | -3 | 6 |
| CC(NC(=O)c1cc(COc2ccccc2)[nH]n1)c1cn2ccsc2n1 (configuration not stated) | 12 | 2 |
| O=C(CCc1ccccc1)NCc1c(-c2ccccc2)nc2n1CCS2 | -3 | -2 |
| Cc1cc(CN(C(C)C)C2CCCCC2O)on1 (configuration not stated) | 0 | -6 |
| O=C(CCN(c1nc(-c2ccco2)nc2ccccc12)C1CC1)NCCN1CCOCC1 | -10 | -1 |
| CCOC(=O)C(=O)N1C[C@@H](C(=O)OCC)[C@@H]2Oc3c(C)cccc3[C@@H]21 | -1 | 11 |
| O=S(=O)(Cc1ccccc1)NCC1CCCN(Cc2cc3ccccc3s2)C1 (configuration not stated) | 2 | -2 |
| CCC(Br)C(=O)Nc1cc(C)on1 (configuration not stated) | -6 | -10 |
| CCCCCCc1ccc(C(=O)Nc2ccc(N3CCCCC3)c(C(=O)NCc3cccnc3)c2)cc1 | 1 | 10 |
| COc1ccccc1CN1CC(C(=O)NCc2cc(C)on2)CCC1=O (configuration not stated) | 3 | -3 |
| CCOC(=O)c1ccc2c(c1)nc(SCc1cc(F)c(F)c(F)c1)n2CCOC | -4 | -7 |
| CC(Oc1ccccc1Br)C(=O)Nc1ccnn1C (configuration not stated) | -2 | 25 |
| COc1ccc(C2CC(=O)Nc3c2c(=O)[nH]c2nc4ccccc4n32)cc1O (configuration not stated) | -1 | 6 |
| COc1ccc(CC2CCN(C(=O)C(OC(C)=O)c3ccccc3)CC2)cc1 (configuration not stated) | 8 | 7 |
| CC(C)NC(=O)C(C)S(=O)(=O)Cc1ccc(-n2cccn2)cc1 (configuration not stated) | 9 | 3 |
| Cc1cc(C)cc(NC(=O)CSCCn2c(C)csc2=O)c1 | 9 | 5 |
| COC(=O)c1cc(I)c2cc[nH]c2c1 | -3 | -3 |

One compound at a time, as listed above:
Record of `COc1cc2c(cc1OC)CN(C(=S)NCCN(C)C)CC2` : NPYLR7 agonist: 3; NPYLR7 agonist max-min: 11
Record of `CCC(Br)C(=O)Nc1cc(C)on1` (configuration not stated) : NPYLR7 agonist: -6; NPYLR7 agonist max-min: -10

In another format: results already given.
Cc1nc(C)n(CC2CCCN2C2CCOC2=O)n1 (configuration not stated)
  NPYLR7 agonist = 10
  NPYLR7 agonist max-min = 8

COc1cccc(-n2nnc3c(=O)n(CC(=O)NCc4ccc(F)cc4)cnc32)c1
  NPYLR7 agonist = 7
  NPYLR7 agonist max-min = 7

CCNC(=O)N(Cc1ccc(OS(=O)(=O)c2ccc(F)cc2)cc1)C1CC1
  NPYLR7 agonist = -3
  NPYLR7 agonist max-min = 6

CC(NC(=O)c1cc(COc2ccccc2)[nH]n1)c1cn2ccsc2n1 (configuration not stated)
  NPYLR7 agonist = 12
  NPYLR7 agonist max-min = 2

Continued:
| SMILES | NPYLR7 agonist | NPYLR7 agonist max-min |
| --- | --- | --- |
| CN1CCCC(CCNC(=O)Cn2ccc(=O)c3ccccc32)C1 (configuration not stated) | 11 | 8 |
| Cc1cccc(CN(C(=O)c2ccc(F)cc2)C2CCC(NC(=O)C3CCN(C(=O)CCc4ccccc4)CC3)CC2)c1 (configuration not stated) | 7 | 20 |
| O=C(Nc1ccc(Oc2ccc(Cl)cc2)nc1)c1n[nH]c(=O)[nH]1 | 13 | 7 |
| Cc1ccc([N+](=O)[O-])cc1S(=O)(=O)N(C)C | 3 | -2 |
| Cc1nsc(NC(=O)NC2Cc3ccccc3C2)n1 | 9 | 12 |
| COCc1nc(NC(C)Cc2ncccc2C)c2cnn(C)c2n1 (configuration not stated) | -5 | -10 |
| C/C(=N/NC(=O)CSc1nnc(-c2ccccc2)n1-c1ccccc1)c1cccs1 | -8 | -1 |
| Cc1ccc(C2CC(c3cccs3)=NN2C(=O)c2ccco2)o1 (configuration not stated) | 2 | 8 |
| CC(C)NC(=O)NC(=O)Cn1cnc2c1c(=O)n(C)c(=O)n2C | 13 | 9 |
| Cc1noc(-c2cccc(C(F)(F)F)c2)c1C(=O)NCCCN(C)c1ccccc1 | 0 | 10 |
| CC(OC(=O)CCc1ccco1)C(=O)Nc1ccc(N2CCCCC2)cc1 (configuration not stated) | 15 | 7 |
| CCCCCNc1cc(C)c(C#N)c2nc3ccccc3n12 | 12 | 5 |
| Cc1csc2nc(CNS(=O)(=O)N(C)C)cn12 | -2 | 1 |
| COc1cccc(-c2cccc(C(=O)NCC3(O)CCCNCC3)c2)c1 (configuration not stated) | 2 | 2 |
| COc1cc2c(cc1OC)CN(c1nn(C)c(=O)n(C)c1=O)CC2 | 9 | 15 |
| CC(C)Cc1cc(CNC(=O)c2cccc3c2NCCC3)no1 | 3 | 2 |
| CC(C)NC(=O)C(=O)N1CCN(C(=O)c2ccc(Br)cc2Cl)CC1 | 3 | 1 |
| O=C(Nc1cccc(Cl)c1)N1CCN(C(C(=O)N2CCOCC2)C2CCCC2)CC1 (configuration not stated) | -8 | -8 |
| CC(C)CN(Cc1csc(COc2ccc(Cl)cc2)n1)C(=O)NC(C)(C)C | 22 | 22 |
| Cc1cc(Nc2ccccc2)nc(N2CCN(C(=O)c3ccc4ccccc4c3)CC2)n1 | 12 | 6 |
| CCCc1nccn1Cc1ccc(Cl)s1 | 3 | 2 |
| O=C(/C=C/c1ccc(Br)o1)Nc1ccc(=O)n(Cc2ccccc2Cl)c1 | 3 | 5 |
| C=CCN(CC=C)c1cc(Cl)nc(SCc2ccc(C(=O)N3CCCC(C(=O)OCC)C3)cc2)n1 (configuration not stated) | -4 | 4 |
| CN(Cc1ccccc1)c1ccc2nnc(-c3ccccc3)n2n1 | 1 | 1 |
| O=C(Nc1ccccn1)C1CCN(C(=O)CN2C(=O)C3CCCCC3C2=O)CC1 (configuration not stated) | 0 | 0 |
| CCN1CCC(N2CCC3(CCCN(Cc4ccc(C(C)C)cc4)C3)C2)CC1 (configuration not stated) | -3 | -5 |
| Cc1[nH]c(-c2ccccc2)nc1C(=O)N1C[C@@H]2[C@@H]3CC[C@@H](C3)[C@@H]2C1 | 2 | 1 |
| C=CCSc1nnc(-c2ccco2)n1-c1ccccc1C | 11 | 5 |
| COc1ccc(C(=O)NC(C)c2nnc(SCc3ccccc3C)n2-c2cc(Cl)ccc2C)cc1 (configuration not stated) | -1 | 8 |
| CC(C)Cn1c(-c2ccccc2)c[nH]c1=S | -14 | -17 |

Continuation:
| SMILES | NPYLR7 agonist | NPYLR7 agonist max-min |
| --- | --- | --- |
| CCOc1cccc(C(=O)Nc2cc(-c3nc4cc(C)ccc4o3)ccc2C)c1 | -10 | -9 |
| COc1cc(/C=C2\NC(=S)NC2=O)ccc1OC(C)C | -9 | -2 |
| CN(Cc1ccccc1)c1ccc(C(=O)N2CCC(CN3CCCC3=O)CC2)cn1 | 4 | 1 |
| Cc1ccc(-c2nc(C=Nc3ccc(C)cc3C)c(O)o2)cc1 | -2 | -9 |
| CC(C)Cn1nc(C(=O)NC2CCCC2)c2c1CCN(C(=O)C(C)C)C2 | 19 | 4 |
| Cn1c(SCC(=O)N2CCCC2)nc2sc3c(c2c1=O)CCCC3 | 1 | -1 |
| CCN(CC(=O)Nc1cc(-c2ccccc2)nn1-c1ccc(Cl)c(Cl)c1)C(=O)Nc1cc(OC)cc(OC)c1 | -2 | 8 |
| CCC(CC)n1ncc(C)c1NC(=O)CC1=C(c2cccs2)CCC1=O | 6 | 7 |
| C/C(=C/C(=O)NCc1ncc(C)o1)c1ccccc1 | -1 | -4 |
| O=C(COc1ccc(Cl)cc1)NCCn1nc(-c2cccnc2)ccc1=O | 7 | -5 |
| CC(C)Oc1ccccc1CSc1nc(N)cc(N)c1C#N | 6 | 4 |
| COc1ncccc1C(=O)NC1CC(=O)N(C2Cc3ccccc3C2)C1 (configuration not stated) | 15 | 2 |
| O=C(O)/C=C/c1nc(-c2cccc([N+](=O)[O-])c2)n2ccccc12 | -5 | -7 |
| N#Cc1ccc(C=Nn2c(-c3ccc(F)cc3)csc2=Nc2cccnc2)cc1 | 18 | 16 |
| CC(C)(C)c1ccc(OCCCC(=O)N2CCC(n3c(=O)[nH]c4ccccc43)CC2)cc1 | 13 | 5 |
| COCCCNC(=O)C(NC(=O)c1cccc(C)c1)C1CCN(C(=O)C2CC2)CC1 (configuration not stated) | -3 | 4 |
| COc1ccc(-c2noc(COc3cc(Cl)c(Cl)cc3Cl)n2)c(OC)c1 | 3 | 4 |
| CCOC(=O)C1(Cc2cccc(OC)c2)CCCN(Cc2cccc3nonc23)C1 (configuration not stated) | 0&9 | -5&11 |
| CCC(C)C(NC(=O)Nc1ccc(OC)cc1OC)C(=O)Nc1nnc(-c2cccc(Cl)c2)s1 (configuration not stated) | 2 | 15 |

An excerpt. The share of hits here may be higher or lower than overall.
